Calb FLC = C. albicans growth modulation with fluconazole; C. albicans CaCi-2 (fluconazole-resistant clinical isolate) + fluconazole, Alamar Blue growth, 48 h; 0.57% of 300,000 active; growth inhibition, % (no concentration beside the values);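 active means most replicates above 75%; inconclusive means exactly half above 75%; inactive means most below 75%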;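 further: all wells also contain fluconazole at 8 µg/ml as a sub-toxic cotreatment; 0% = median of DMSO wells and 100% = median of geldanamycin control wells; wells of about 8 µL received 7.5 nL stock; the first replicate is given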
MLL AF4-AF9 inh = blocks AF4 peptide binding to human AF9; inhibition, % at 10 µM; AlphaScreen, biotin-AF4 peptide binding to FLAG-AF9; 0.47% of 350,000 active;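 active means every replicate reaching a set inhibition limit, whatever the replicate mean, cut at about 25% in these data; inconclusive means mean inhibition reaches that limit but some replicates miss it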;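 further: 0% = plate neutral control median and 100% = total signal loss; the record names both 10 and 1 µM as test concentration; the first replicate is given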
RanGTP-Impb inh = disruptors of Ran-importin-beta complex formation – biochemical, FRET, CFP-Ran, YFP-importin-beta, homogeneous, primary screen | cell-free CFP-Ran/YFP-importin-beta FRET ratio | inhibition, % (test concentration not listed) | 1.1% of 300,000 active;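 active means most replicates above 15%; inconclusive means exactly half above 15%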;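 further: 0% = DMSO wells and 100% = Ran loaded with GDP instead of GTP; wells of about 40 µL received 100 nL stock; the first replicate is given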
LANA-H2B inh = blocks KSHV LANA binding to histone H2A/H2B; Q9QR71; cell-free LANA-H2A/H2B peptide, fluorescence polarization; inhibition, % (concentration not given with the values); 0.6% of 320,000 active; AID 2629; in the data active means inhibition mostly above about 10%, no sharp cut-off; inactive means mostly below about 6.7%;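 further: stock transfer was 7.5 nL into about 10 µL; 0% = median of vehicle wells and 100% = median of positive control wells; one replicate is shown; the record names a cut of 25% in any replicate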
Target sequence (Q9QR71 whole entry, looked up): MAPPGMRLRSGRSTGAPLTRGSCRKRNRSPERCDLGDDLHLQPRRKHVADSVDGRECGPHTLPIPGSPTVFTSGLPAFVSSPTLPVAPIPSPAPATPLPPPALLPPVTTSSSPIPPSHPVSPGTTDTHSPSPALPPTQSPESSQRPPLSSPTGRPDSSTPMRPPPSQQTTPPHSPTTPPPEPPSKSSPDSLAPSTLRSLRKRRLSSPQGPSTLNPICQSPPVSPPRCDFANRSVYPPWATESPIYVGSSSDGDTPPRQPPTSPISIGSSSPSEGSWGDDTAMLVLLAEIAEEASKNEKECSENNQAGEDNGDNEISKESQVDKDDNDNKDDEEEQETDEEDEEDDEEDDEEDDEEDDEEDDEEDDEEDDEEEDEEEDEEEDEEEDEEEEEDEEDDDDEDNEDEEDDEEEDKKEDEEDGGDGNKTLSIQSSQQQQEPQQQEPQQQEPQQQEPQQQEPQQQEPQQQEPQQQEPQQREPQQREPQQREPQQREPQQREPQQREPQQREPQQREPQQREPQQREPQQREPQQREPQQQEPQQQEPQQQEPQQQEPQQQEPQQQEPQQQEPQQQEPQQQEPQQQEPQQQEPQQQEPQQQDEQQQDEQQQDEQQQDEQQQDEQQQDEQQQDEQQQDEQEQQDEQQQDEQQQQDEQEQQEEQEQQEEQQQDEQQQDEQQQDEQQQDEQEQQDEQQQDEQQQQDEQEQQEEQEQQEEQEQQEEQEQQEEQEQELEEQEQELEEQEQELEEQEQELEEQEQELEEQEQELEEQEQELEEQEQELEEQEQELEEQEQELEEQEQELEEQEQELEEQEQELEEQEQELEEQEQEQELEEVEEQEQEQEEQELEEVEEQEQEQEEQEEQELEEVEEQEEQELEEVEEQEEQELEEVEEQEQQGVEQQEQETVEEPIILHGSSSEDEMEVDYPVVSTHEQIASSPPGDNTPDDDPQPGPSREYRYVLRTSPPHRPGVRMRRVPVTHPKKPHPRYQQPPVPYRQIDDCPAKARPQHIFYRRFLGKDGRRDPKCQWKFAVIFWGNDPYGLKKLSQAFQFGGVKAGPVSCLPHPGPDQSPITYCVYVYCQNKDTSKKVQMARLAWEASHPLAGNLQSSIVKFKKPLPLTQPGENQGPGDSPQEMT
Vif TR-FRET = inhibitors of Vif binding to APOBEC3G peptide, primary screen, biochemical, TR-FRET, GST-Vif 1-94, biotin-A3G peptide, dose response retest (AID 1117319) | 0.57% of 260,000 active | TR-FRET GST-Vif / biotin-A3G peptide binding; higher % means a stronger effect; test concentration not given here; strong numbers were not always called active | inhibition, %, or IC50 in µM where a hit was titrated;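 active means above the screen mean plus three standard deviations and confirmed in dose response; inconclusive means results disagree or hit not tested in dose response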;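 further: Vif residues 1-94 fused to GST binding biotinylated APOBEC3G peptide 110-148; 0% = full assay without inhibitor and 100% = GST in place of GST-Vif; retest series ran down from 100 µM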
Bfl-1 A1 inh = inhibitors of the anti-apoptotic protein A1, read as caspase activation; MEF A1-2A-BIM cells, Caspase-Glo 3/7 luminescence, 3 h; percent of clofoctol response, vehicle zero; caspase activation, % (test concentration not listed); 0.066% of 330,000 active;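 active means over half of replicate activation scores above 10%, or exactly half above 10 with the replicate mean above 10; inconclusive means replicate mean below 10 yet half the replicates above 10; inactive means over half of replicates below 10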;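 further: wells of about 30 µL received 50 nL stock; many hits fall short of the cut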
T cruzi repl = T. cruzi replication inhibition. T. cruzi beta-gal in NIH3T3, luminescence, 90 h. inhibition, % (test concentration not listed). 1.4% of 300,000 active. AID 1885;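 active means mean inhibition across valid replicates above about 55%, limit read from the data; inconclusive means mean below that limit but half or more replicates reach it; inactive means mean below it, under half of replicates reach it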;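 further: signal also drops with host cell toxicity which is not excluded here; 0% = plate median of DMSO wells and 100% = zero luminescence signal; higher percent means less beta-gal luminescence so fewer parasites; stock transfer was 50 nL into about 50 µL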
Beta apoptosis = beta cell apoptosis inhibition; INS-1E cytokine-induced death, ATP luminescence, 48 h; percent of positive-control rescue, neutral wells zero; protection from apoptosis, % (test concentration not listed); 0.8% of 300,000 active;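 active means all replicates at 75% or more, or half of them and the mean; inconclusive means half reach 75% but not the mean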;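 further: 0% = cytokine-treated negative control wells and 100% = positive control rescue; higher means more ATP so stronger rescue from cytokine killing; wells of about 40 µL received 100 nL stock; the first replicate is given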
* hit, by the source's call; ? = inconclusive; · = not tested or not shown; & = joins results of further samples.

SMILES | Calb FLC | MLL AF4-AF9 inh | RanGTP-Impb inh | LANA-H2B inh | Vif TR-FRET | Bfl-1 A1 inh | T cruzi repl | Beta apoptosis
COc1ccccc1N(CC(=O)NCc1ccccc1C)S(=O)(=O)c1ccc(C)cc1 | 13 | 0.5 | 0.2 | 4.2 | · | -0.6 | 16 | ·
O=C(COC(=O)/C=C/c1cccc(F)c1)NC1CCCC1 | · | 1.8 | · | 6.5 | 3% | -0.7 | · | -3
CC(C)(C)NS(=O)(=O)c1ccc2c(c1)oc(=O)c1cc(S(=O)(=O)NC(C)(C)C)ccc12 | 2 | · | 2.0 | 6.1 | -25% | -1.0 | -8 | -1
CC(=O)NC(NC(=S)Nc1cccc(Br)c1)C(Cl)(Cl)Cl (stereo not given) | -3 | 0.5 | 0.8 | -1.0 | 13% | 0.0 | -3 | 0
CC(=O)c1cccc(NC(=O)N2CCOCC2)c1 | -2 | -2.2 | 0.8 | -3.7 | · | 0.1 | -12 | -2
NC(=O)C1=C[C@@H](c2ccccc2)C[C@@H](OCc2ccc(CO)cc2)O1 | -6 | 2.8 | -3.9 | 0.7 | 30% | -0.2 | -10 | 1
O=C(COC(=O)[C@@H]1CCCN1C(=O)c1cccs1)Nc1cccc([N+](=O)[O-])c1 | · | -1.1 | · | -3.2 | -5% | 1.2 | · | 6
O=C(NC1CC(=O)c2sccc21)c1cccc(C(F)(F)F)c1 (stereo not given) | -2 | -0.7 | 5.4 | 3.4 | -9% | -2.4 | -14 | -3
CCCCn1c(N)c(N(CCOC)C(=O)CSc2ccc([N+](=O)[O-])cc2)c(=O)[nH]c1=O | · | 0.9 | · | -4.3 | 0% | 0.5 | · | 0
CCCOc1ccc(CNC(=S)Nc2ccccc2)cc1Cl | 8 | 0.7 | -0.5 | 5.2 | -2% | -0.7 | -2 | -1
O=C1CCC(C(=O)NCc2ccccc2)N1 (stereo not given) | 1 | -9.8 | 2.9 | 4.4 | · | 0.4 | -4 | -6
Cc1ccccc1C(=O)NCC(=O)OCCCOC(=O)CNC(=O)c1ccccc1C | -8 | -0.8 | -3.9 | -5.1 | 2% | 0.7 | -3 | -2
O=C(N/N=C/c1cccs1)/C(=C/c1ccccc1)NC(=O)c1ccccc1 | 10 | · | 1.2 | 3.6 | · | -0.1 | 5 | 0
CC(=O)c1ccc(N(C(=O)Cn2nnc3ccccc32)C(C(=O)NC2CCCCC2)c2cn(C)nc2C)cc1 (stereo not given) | -4 | · | 1.9 | · | -7% | · | 4 | ·
CCCCCCCCOC(=O)c1c(CSC(=N)N)n(C)c2cc(Br)c(OC(C)=O)cc12 | 15 | 5.7 | 3.8 | -2.9 | -21% | -0.5 | 22 | -1
CCOC(=O)C1CCN(C(=O)c2ccccc2NS(=O)(=O)c2ccccc2)CC1 | 0 | 0.0 | -0.3 | -1.2 | · | 0.1 | -12 | -5
COc1cccc(CC(=O)N2CCN(S(=O)(=O)c3ccc(Br)cc3)CC2)c1 | 11 | -14 | -2.3 | 3.6 | 1% | 0.1 | 1 | -2
NS(=O)(=O)c1ccc(NS(=O)(=O)c2ccc3c(c2)OCCO3)cc1 | -6 | -12 | -0.9 | 3.8 | -9% | 0.2 | -6 | ·
Cc1cc(=O)c2c(C)ccc(C)c2[nH]1 | 2 | -0.9 | 0.4 | -5.7 | -12% | 0.4 | -1 | -2
Cc1ccc(CNc2ccc(N3CCOCC3)c(C(=O)O)c2)s1 | 34 | · | 4.1 | -3.3 | 18% | 1.0 | -7 | -3
O=C(COc1ccccc1[N+](=O)[O-])NNC(=O)Nc1cccc2ccccc12 | -11 | -1.6 | -0.9 | -7.3 | 10% | 0.0 | -4 | -14
C=CCn1c(-c2c(C)nc3cc(C)ccn23)n[nH]c1=S | 4 | 0.8 | 1.6 | 3.4 | 5% | -0.1 | -10 | 4
Cc1ccc(CN(Cc2cc3cc(C)ccc3[nH]c2=O)C(=O)N2CCOCC2)cc1 | 11 | · | -6.6 | -3.6 | -11% | 0.8 | 13 | 1
O=C(COC(=O)c1cccc(S(=O)(=O)NCc2ccccc2)c1)c1ccc2c(c1)OCCO2 | -30 | -0.1 | 0.7 | -4.6 | 18% | -0.1 | 27 | 0
N#CCC(=O)N/N=C/c1cn(Cc2cccc3ccccc23)c2ccccc12 | 6 | 5.8 | -1.4 | 1.4 | · | 0.1 | -29 | 31

(list continues)
SMILES | Calb FLC | MLL AF4-AF9 inh | RanGTP-Impb inh | LANA-H2B inh | Vif TR-FRET | Bfl-1 A1 inh | T cruzi repl | Beta apoptosis
CC(C)CC(=O)Nc1cccc(-c2csc(-c3ccccc3)n2)c1 | 2 | · | -3.1 | -1.5 | -6% | 0.4 | 4 | 28
COc1cccc(NC(=O)CCc2nnc3ccc(N4CCC(C)CC4)nn23)c1 | -18 | 0.7 | 0.0 | 0.0 | -3% | -1.7 | -4 | 5
CCCCNS(=O)(=O)C1CCS(=O)(=O)C1 (stereo not given) | -3 | · | -1.6 | 6.5 | 31% | 0.0 | 6 | 1
Cn1nnnc1SCC(=O)Nc1ccccc1C(=O)NC1CC1 | 1 | · | 5.7 | -2.1 | 1% | 1.0 | -28 | 1
CC1Cc2ccccc2N1C(=O)CSc1nc(-c2ccccc2)cs1 (stereo not given) | 4 | -2.3 | 0.5 | -0.5 | · | 0.3 | 43 | 8
O=C(Nc1ccc(Cl)c(S(=O)(=O)N2CCCCC2)c1)C1=COCCO1 | 7 | 0.9 | ? | -1.9 | 27% | 1.1 | 3 | -3
CC(C)Oc1ccc(Br)cc1C(=O)N/N=C/c1c[nH]c2ccccc12 | -12 | -9.4 | 0.4 | 0.1 | -2% | -1.4 | -1 | 4
COc1cc(C(c2nnnn2C2CCCC2)N2CCN(C)CC2)cc(OC)c1OC (stereo not given) | -1 | · | 5.9 | 1.0 | 5%&-2% | 0.0 | 2 | 2
Cc1ccc2c(CC(=O)Nc3cccc(S(=O)(=O)N4CCOCC4)c3)coc2c1 | -3 | 0.5 | -3.8 | -0.3 | 32% | 0.0 | -7 | -3
COCCN(Cc1ccccc1)C(=O)c1ccc(C(=O)c2ccccc2)cc1 | · | -0.3 | · | 1.9 | 0% | 1.2 | · | 0
O=C(NCCCc1ccc(F)cc1)C1CCC(=O)N(CCN2CCOCC2)C1 (stereo not given) | 1 | -1.2 | 1.0 | -2.1 | · | 0.0 | -7 | -4
CCOC(=O)C1(CC2CCCCO2)CCN(C2CCSCC2)CC1 (stereo not given) | 27 | -0.5 | 2.1 | -4.7 | -4% | -0.4 | 9 | -2
N#C/C(=C/c1ccc(N2CCOCC2)o1)C(=O)N1CCOCC1 | -1 | 1.1 | 39* | -41 | · | 0.1 | 12 | -1
Cc1ccc(CNC(=O)CCCn2nc(C)n3ccnc3c2=O)cc1 | -1 | 8.7 | -2.6 | 9.9 | · | -0.9 | 7 | 1
O=C(CCN1C(=O)C2CCCCC2C1=O)Nc1nc2ccc(F)cc2s1 (stereo not given) | · | -2.1 | · | 4.9 | · | 0.1 | · | 1
Cc1ccc(NC(=S)NC(=O)c2cccs2)cc1F | · | 0.0 | · | 4.9 | 0% | 0.6 | · | -1
CCOC(=O)c1cc2c(ccn2-c2ccc(F)cc2)n1CC(=O)NC(C)(C)C | 4 | · | -1.2 | 0.4 | 5% | -0.7 | 12 | 1
O=C(NC(=S)NC(c1ccccc1)c1ccncc1)c1ccccc1 (stereo not given) | 23 | 1.2 | 1.3 | -8.9 | ? | -1.8 | -34 | -10
O=C(Nc1ccccc1Oc1ccccc1)c1cnccn1 | 11 | · | -0.9 | 10 | 0% | 1.0 | -1 | -8
CCOCc1cc(=O)[nH]c(SC)n1 | 0 | -2.9 | -5.2 | · | 1% | · | -6 | ·
COc1ccc(-n2c(-c3ccc(Cl)cc3Cl)n[nH]c2=S)c(OC)c1 | 16 | -6.9 | 3.5 | 2.5 | -26% | 0.8 | -1 | -1
Cc1cc2nccc(-c3ccco3)n2n1 | -3 | · | 0.7 | -2.0 | -4% | 0.4 | -7 | -5
COc1ccc(OC)c(NC(=O)C2COc3ccccc3O2)c1 (stereo not given) | 3 | · | 9.6 | -2.3 | 5% | 0.7 | 13 | 8
Cc1cc(C(=O)CCl)c(C)n1CCc1ccc(Cl)cc1 | -32 | 0.5 | 2.5 | -1.6 | ? | 14* | 62* | 28
Cc1c(NC(=O)C(C)OC(=O)c2cc3c4ccccc4n(C)c3s2)c(=O)n(-c2ccccc2)n1C (stereo not given) | 5 | · | ? | -12 | 27% | 0.5 | -4 | 5

(continued)
SMILES | Calb FLC | MLL AF4-AF9 inh | RanGTP-Impb inh | LANA-H2B inh | Vif TR-FRET | Bfl-1 A1 inh | T cruzi repl | Beta apoptosis
CCC(C)[C@H](N)c1cn([C@@H](Cc2cc3ccccc3[nH]2)C(=O)N2CCNCC2)nn1 (stereo not given in full) | 10 | 30* | -2.3 | -1.7 | 0% | -0.6 | -4 | -1
Cc1ccc(-c2nnc(Cc3ccc([N+](=O)[O-])cc3)o2)cc1 | 8 | 4.2 | 9.5 | -8.0 | · | 0.1 | 20 | -6
Cc1cc(C)c(S(=O)(=O)N(C)CC(=O)NC2CCCC2)c(C)c1 | 4 | · | -0.9 | -4.4 | -7% | 0.8 | 2 | -7
CCOC(=O)c1cccc(NC(=O)CSc2nnc(COc3ccccc3C)o2)c1 | 11 | 5.5 | 4.7 | -0.5 | 23% | 0.8 | 15 | 1
Cn1c(=O)oc2cc(S(=O)(=O)N3CCN(c4ccccn4)CC3)ccc21 | 2 | -2.3 | 4.3 | 2.9 | · | 0.6 | -14 | -6
COc1ccc(CN(C)CC(=O)Nc2ccc(Cl)cc2C(F)(F)F)c(OC)c1 | 1 | · | 2.4 | -1.7 | 31% | 0.4 | 4 | -5
CC(=O)Nc1ccc(S(=O)(=O)Oc2cccc(N3C(=O)C4CC=CCC4C3=O)c2)cc1 (stereo not given) | 0 | · | -2.5 | 1.6 | 24% | 0.0 | -18 | 5
O=C(Nc1ccccc1)c1nc[nH]c1C(=O)NCCCCCCNC(=O)c1[nH]cnc1C(=O)Nc1ccccc1 | · | -2.1 | · | -3.0 | · | -0.2 | · | 21
CC12CCC(=O)N1C(C(=O)Nc1cccc(F)c1)CS2 (stereo not given) | 3 | -1.6 | -2.9 | 1.3 | · | 0.3 | -4 | -11
COC(=O)[C@H](Cc1ccccc1)N(Cc1ccccc1)S(=O)(=O)N(Cc1ccccc1)[C@@H](Cc1ccccc1)C(=O)OC | · | 5.1 | · | 8.2 | · | 1.3 | · | 119*
O=c1[nH]c(CN2CCN(c3ccc(F)cc3)CC2)nc2ccccc12 | -3 | · | -2.6 | -0.2 | 0% | -0.8 | -8 | 1
COc1cc(NS(=O)(=O)c2csc(C(N)=O)c2)cc(OC)c1 | -2 | 0.3 | -2.4 | 5.9 | -7% | -0.2 | -14 | -2
Cc1nc2nc3c(c(=O)n2[nH]1)CCCC3 | -4 | · | 4.5 | 0.7 | 2% | 0.4 | -1 | -7
COc1ccc(N(CC(=O)N2CCCCC2)S(=O)(=O)c2c(C)nn(C)c2C)cc1 | -2 | -0.5 | -2.1 | -6.8 | 5% | 0.0 | 3 | -4

High-throughput results as filed in PubChem.
